Assay outcomes from PubChem.
Six1-Eya2 blk = qHTS Assay for Inhibitors of the Six1/Eya2 Interaction. Homeobox protein SIX1 (Homo sapiens) + Protein phosphatase EYA2 (Homo sapiens), …. AlphaScreen GST-Six1/His-Eya2 binding, biochemical; hits give low values; control for the full effect not named in the record. activity change, % (test concentration not listed). 360,000 tested, 0.56% active; in the data active = activity change below about -65%; inconclusive = about -30% to -65%; inactive = above about -30%; further: on the % scale 0 is the no-effect control and ±100 the full control effect; compound concentration not given in the record
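Homogeneous AlphaScreen proximity assay pairing GST-Six1 with His-tagged Eya2 (added as 5X mix: 250 nM and 500 nM) in 50 mM Tris pH 8.0, 300 mM NaCl, 1 mM TCEP. Glutathione donor and nickel acceptor beads; 1 h, 37 °C, dark.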
TRPML1 blocker = qHTS for Inhibitors of the Human Mucolipin Transient Receptor Potential 1 (TRPML1); Mucolipin-1 (Homo sapiens), Q9GZU1; 390,000 tested, 0.02% active; TRPML1-inducible cells, Ca2+ dye fluorescence, FDSS; hits give low values; inhibition of EC80 agonist-evoked calcium signal; activity change, negative = inhibition, % (test concentration not listed); in the data active means activity change below about -50%; inconclusive means about -30% to -50%; inactive means above about -30%;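 further: stimulus is agonist 54-4 at its EC80 concentration; on the % scale 0 is the no-effect control and ±100 the full control effect; compound concentration not given in the record; the text of the record puts the active cut at -80%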
Target sequence (Q9GZU1 whole entry, looked up): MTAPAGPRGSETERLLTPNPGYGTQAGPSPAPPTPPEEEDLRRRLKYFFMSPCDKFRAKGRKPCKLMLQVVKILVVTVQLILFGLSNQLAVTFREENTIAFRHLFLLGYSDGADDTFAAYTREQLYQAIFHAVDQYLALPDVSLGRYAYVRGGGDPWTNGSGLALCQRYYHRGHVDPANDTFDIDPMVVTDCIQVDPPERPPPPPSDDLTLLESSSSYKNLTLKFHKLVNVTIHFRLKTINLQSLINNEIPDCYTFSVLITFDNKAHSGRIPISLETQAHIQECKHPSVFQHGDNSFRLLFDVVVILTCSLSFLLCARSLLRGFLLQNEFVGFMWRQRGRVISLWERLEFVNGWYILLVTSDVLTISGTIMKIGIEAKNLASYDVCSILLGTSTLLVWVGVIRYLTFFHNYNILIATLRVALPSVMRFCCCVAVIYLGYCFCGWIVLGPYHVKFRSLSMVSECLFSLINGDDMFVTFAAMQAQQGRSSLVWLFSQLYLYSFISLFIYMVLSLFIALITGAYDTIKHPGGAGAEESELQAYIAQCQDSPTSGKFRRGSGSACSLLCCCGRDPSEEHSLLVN
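Calcium fluorescence in TRPML1-DL cells induced overnight with Tet: a 110 s read after compound pin addition, then a 110 s antagonist read after challenge with 54-4 at 4 uM final (EC80).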
TRPML1 agonist = qHTS for Agonists of the Human Mucolipin Transient Receptor Potential 1 (TRPML1). Mucolipin-1 (Homo sapiens), Q9GZU1. TRPML1-expressing cells, Ca2+ dye fluorescence, FDSS; host cell line not named in the record; reference of the full effect not given here. activation, % (no concentration beside the values). 410,000 tested, 0.12% active. AID 624414, 2012; in the data active = activation above about 50%; inconclusive = about 30% to 50%; inactive = below about 30%; further: 0% is about no effect; the text of the record puts the active cut at 80%
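In this qHTS format, compounds were pin-transferred onto Ca8-dye-loaded TRPML1-DL cells induced with Tet overnight, and intracellular Ca2+ fluorescence was recorded kinetically for 110 s after a 10 s baseline. A subsequent 4uM final 54-4 (EC80) addition followed by a second 110 s read served as the antagonist phase.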
D2 potentiator = Beta-Arrestin HTS for Positive Allosteric Modulators of the Human D2 Dopamine Receptor: Potentiators | D(2) dopamine receptor (Homo sapiens), P14416 | DiscoveRx D2 beta-arrestin cells, luminescence, 90 min; 100% = 57 uM dopamine signal | potentiation, % (concentration not given with the values) | 360,000 tested, 0.23% active | AID 624464, 2012; active = potentiation of 50% or more; inconclusive = 30% to 50%; inactive = 30% or less;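 further: compound concentration not given in the record; tested on top of an EC20 dose of dopamine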
Target sequence (P14416 whole entry, looked up): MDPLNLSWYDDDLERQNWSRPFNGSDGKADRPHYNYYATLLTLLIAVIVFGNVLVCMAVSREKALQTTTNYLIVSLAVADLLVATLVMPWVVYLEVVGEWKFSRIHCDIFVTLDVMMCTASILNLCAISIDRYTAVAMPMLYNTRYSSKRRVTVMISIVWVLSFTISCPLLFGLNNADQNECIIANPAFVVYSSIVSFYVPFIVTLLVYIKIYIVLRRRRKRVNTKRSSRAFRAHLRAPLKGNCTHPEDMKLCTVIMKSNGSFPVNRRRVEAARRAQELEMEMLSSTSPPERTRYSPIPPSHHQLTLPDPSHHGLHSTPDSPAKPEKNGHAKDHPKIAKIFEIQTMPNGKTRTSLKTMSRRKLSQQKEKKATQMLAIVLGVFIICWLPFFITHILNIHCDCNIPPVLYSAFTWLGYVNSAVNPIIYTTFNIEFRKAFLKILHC
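PathHunter D2 cells, attached overnight at 37 deg C, received compound in DMSO plus dopamine at EC20 (50 nM final) for 90 min at 37 deg C. Beta-arrestin recruitment was read as luminescence after 1 h with detection reagent at ambient temperature.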
D2 agonist = Beta-Arrestin HTS for Positive Allosteric Modulators of the Human D2 Dopamine Receptor: Agonists | 360,000 tested, 0.084% active | activation, % (concentration not given with the values) | DiscoveRx PathHunter D2 beta-arrestin, luminescence, 90 min; 100% = 57 uM dopamine signal | D(2) dopamine receptor (Homo sapiens), P14416; in the data active = activation above about 40%; inconclusive = about 15% to 40%; inactive = below about 15%; further: compound concentration not given in the record; the text of the record calls up to 30% inactive
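Agonist mode: compounds alone added to overnight-plated D2 PathHunter cells for 90 min at 37 C, with 57 uM final dopamine (EC100) defining full response. Beta-arrestin recruitment detected by chemiluminescent reagent, read after 1 h at ambient temperature.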
PINK1 expr mod = A Quantitative High throughput Screen to Identify Chemical Modulators of PINK1 Expression | 410,000 tested, 0.2% active | PINK1 immunofluorescence, high-content cytometry, 24 h | Potency, µM (series often up to 76.6 µM), for inactives: at the highest dose activation (PINK1 increase), actives largely listed as activators | AID 624263, 2012; active = well fitted activation curve with a large enough effect; inconclusive = small, poorly fitted or top-dose-only effect; inactive = flat fitted curve, though single readings scatter; cell line not stated here;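 further: potency means the concentration at half of the fitted maximal effect; % of control where 0% means no effect; nearly all actives have a fitted effect of over 65% in size; a mitochondrial uncoupler was the plate control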
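Fluorescence from anti-PINK1 antibody, together with nuclear and cell stains, was scanned on a laser-scanning cytometer. Before staining, stable-line cells were incubated 24 hours with compounds at 5 concentrations; primary antibody 12 h at 10 degrees C.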
* marks the source's active call; other numbers are inactive results; ? = inconclusive; . = not tested or not shown; [ ] = remark or other dose.

SMILES	Six1-Eya2 blk	TRPML1 blocker	TRPML1 agonist	D2 potentiator	D2 agonist	PINK1 expr mod
CCC(C)(C)NC(=O)C1c2ccccc2Oc2ccccc21	3	0	-0.9	-6	-1.6	-0.4%
Cc1ccc(CNS(=O)(=O)c2cc(C(=O)Nc3cccc(C(F)(F)F)c3)ccc2F)cc1	.	48	1.7	.	.	3.4%
COc1ccc(Cc2noc(CN3CCCC(OCc4ccccn4)C3)n2)cc1OC (stereo not given)	5	-1	-0.2	0	1.1	-1.5%
Nc1[nH]c(C(=O)c2ccccc2)c(-c2ccncc2)c1C(=O)NCc1cccc2ccccc12	-26	.	-0.2	.	.	-0.5%
ON=C1CCCCCCCC1	8	6	-0.1	-14	0.2	-0.3%
Cc1ccc(OCC(=O)Nc2ccc(F)cc2)cc1	8	23	2.3	-5	-1.1	2.1%[38.3 µM]
Cc1c(Cl)c(C(=O)NC2C3CC4CC(C3)CC2C4)nn1C (stereo not given)	-1	2	-0.7	-14	-1.7	-2.0%[38.3 µM]
NC(=O)NC(=O)COC(=O)CC12CC3CC(CC(C3)C1)C2	-3	31	0.3	-1	-4.2	1.4%
CCOC(=O)c1c(C)[nH]c(C(=O)OC/C(O)=C(\C#N)c2nc3ccccc3[nH]2)c1C	-10	6	0.6	-9	1.5	5.8%
Cc1cc2nc(-c3nnnn3Cc3ccccc3)c(=O)[nH]c2cc1C	5	.	-0.4	.	.	2.2%
C=CCn1c(C)cc(C(=O)COc2ncnc3sccc23)c1C	-15	22	0.7	-1	1.6	-7.6%[38.3 µM]
CC(Oc1ccc(F)cc1)C(=O)Nc1cc(S(=O)(=O)N2CCOCC2)ccc1N1CCCCC1 (stereo not given)	-16	5	-0.2	-3	4.1	3.6%
COc1ccc(C)c2sc(N(Cc3cccnc3)C(C)=O)nc12	.	-2	1.5	.	.	0.3%
CCOC(=O)C1CCCN(c2cc(C)nc3c(-c4ccccc4OC)c(C)nn23)C1 (stereo not given)	.	26	2.1	.	.	0.0%
CC(=O)Nc1ccc(NC(=O)CN(C)S(=O)(=O)c2ccc3c(c2)CCCC(=O)N3)cc1	.	-3	3.8	.	.	-1.0%
CCOC(=O)c1sc2ncn(C(C)C(=O)OCC)c(=O)c2c1C (stereo not given)	3	13	0.6	-23	-1.5	-1.7%
CCc1ccccc1NC(=O)c1cc(-c2cccs2)on1	13	3	-0.3	-12	-5.6	0.8%
Cc1nc2sc3c(c2c(=O)n1NC(=O)CCBr)CCCC3	3	-1	0.1	-9	-1.2	3.6%
COC(=O)C1CC2=C(CCCC2=O)N(c2ccccc2)C1=O (stereo not given)	-1	7	1.6	-2	0.9	-1.7%
CN(C(=O)c1ccc(NC(=O)c2ccco2)cc1)c1ccccc1	1	15	-0.7	-9	-1.1	0.5%
C/C(CC(=O)NC1C2CC3CC(C2)CC1C3)=N\NC(=O)Cc1cccs1 (stereo not given)	8	-9	-0.1	-2	-3.5	1.1%
Cc1noc(C)c1C(=O)Nc1nc(-c2cc(F)ccc2F)cs1	4	24	2.3	-70	-1.5	9.0%
CCC(C(=O)OCC(=O)NC(=O)NC(C)(C)C)c1ccccc1 (stereo not given)	-6	-2	1.6	-6	8.5	6.5%
Cc1cc2cc(CN(Cc3cccs3)C(c3nnnn3C(C)(C)C)C(C)C)c3nnnn3c2cc1C (stereo not given)	2	8	-0.8	8	0.8	11%
CCc1ccc(CN2CCCC(CNS(=O)(=O)c3ccc(OC)cc3)C2)cc1 (stereo not given)	-12	-13	0.1	-21	-1.8	1.2%
Cc1ccc(C2=NC(C)(C)N=C2SCC(=O)Nc2ccc(Cl)cc2)cc1	6	14	1.0	1	2.1	0.9%
CC1(C)OC(=O)C2=C(C[C@@H](C3CCCC3)O[C@@H]2c2ccc(Cl)cc2)O1	-11	.	-0.2	.	.	3.2%
CC(Cn1cncn1)C(=O)N1CCN(S(=O)(=O)c2ccccc2)CC1 (stereo not given)	2	-11	-0.2	28	-0.1	0.5%
CC(=O)c1cc2ccc(O)cc2oc1=O	7	-9	14	-13	-3.3	0.9%
O=C1NC(c2ccccc2)Oc2ccccc21 (stereo not given)	-14	-22	-0.2	14	7.3	-0.2%
O=C(CCc1nnc(CCc2ccccc2)o1)N1CCCC1c1nccs1 (stereo not given)	2	2	0.0	6	4.7	-0.9%
C=CCNc1sc(C(=O)c2ccc(C)cc2)c(N)c1C#N	0	-7	2.2	-4	-1.9	26%
CC(=O)c1ccc(N(C(=O)Cn2nnc3ccccc32)C(C(=O)NCc2ccccc2)c2ccccn2)cc1 (stereo not given)	-10	-7	0.6	-16	-2.6	1.9%
CC(C)C[C@H](NC(=O)N1CCn2c1nc1ccccc12)C(=O)N1CCCCC1	3	-4	4.0	-4	-2.3	-1.2%
COc1ccc(OCCNC(=O)C2(C)CCN2Cc2ccc3ccccc3c2)cc1 (stereo not given)	-10	.	0.7	-5	-5.4	0.3%
Cc1ccc(-c2csc3nc[nH]c(=S)c23)cc1C	-24	-2	1.3	-10	-6.8	2.2%
Cc1ccc2c(c1)N(CC(=O)O)C(=O)CO2	10	5	0.1	-8	2.0	8.2%[38.3 µM]
O=C(/C=C/c1ccccc1)N1CCN(Cc2nc3ccccc3c(=O)[nH]2)CC1	-9	20	-0.5	-10	-0.1	.
O=C(COC(=O)/C=C/c1ccc(F)cc1)Nc1ccc(Cl)cn1	-6	3	0.3	-2	-3.1	1.7%
c1csc(-c2ccn[nH]2)c1	1	-1	2.5	10	-5.0	0.6%

Sorted by heavy-atom count (smallest number first): three of the compounds above.
SMILES	Six1-Eya2 blk	TRPML1 blocker	TRPML1 agonist	D2 potentiator	D2 agonist	PINK1 expr mod
Cc1ccc(-c2csc3nc[nH]c(=S)c23)cc1C	-24	-2	1.3	-10	-6.8	2.2%
C=CCNc1sc(C(=O)c2ccc(C)cc2)c(N)c1C#N	0	-7	2.2	-4	-1.9	26%
O=C(/C=C/c1ccccc1)N1CCN(Cc2nc3ccccc3c(=O)[nH]2)CC1	-9	20	-0.5	-10	-0.1	.

The list goes on:
SMILES	Six1-Eya2 blk	TRPML1 blocker	TRPML1 agonist	D2 potentiator	D2 agonist	PINK1 expr mod
COc1cccc(-c2cc(C(F)(F)F)nc(-n3cncn3)n2)c1	-2	-13	2.4	-5	-2.9	-0.8%[38.3 µM]
COC(=O)c1ccccc1NC(=O)Nc1ccc(C)cn1	0	0	-0.3	-6	3.3	0.2%
Cc1ccc(NC(=O)Cn2c(=O)n(Cc3ccco3)c(=O)c3ccc(C(=O)NC4CCCC4)cc32)c(C)c1	.	-4	1.1	.	.	2.0%
CC(C)[C@H](NC(=O)c1c(F)cccc1F)C(=O)N1CCN(c2ccc(F)cc2)CC1	6	22	1.9	-4	-5.9	0.3%
CCN1CCN(C(=O)c2cc3sccc3n2CC(=O)c2ccccc2)CC1	-4	30	0.2	-24	-1.4	1.2%[38.3 µM]
Clc1ccc(-n2ncc3c(NCCN4CCOCC4)ncnc32)cc1	3	45	0.1	1	7.7	6.0%
CN(C(=O)CCNC(=O)Cn1cnc2ccccc2c1=O)c1ccc(Br)cc1	-8	10	-0.5	-8	-2.6	2.5%
O=C(Nc1ccc(OC(F)(F)F)cc1)c1n[nH]c(Cn2cncn2)n1	4	-13	0.1	0	-0.3	.
COc1cccc(-c2nnc(N)o2)c1	-5	5	1.9	-33	-3.1	-1.2%
COc1ccc(C(=O)N2CCn3c2nc2ccccc23)cc1	10	10	-0.5	-1	-1.6	0.5%
Cc1ccc(C)c(S(=O)(=O)N2CCCCC2CCNC(=O)C(=O)NC2CCCC2)c1 (stereo not given)	-4	6	0.8	11	-1.3	4.2%
O=C(CSc1ccc2ccccc2n1)Nc1ccc(N2CCOCC2)cc1	-6	2	1.4	-7	-4.5	4.4%
COCCCN1C(=O)C(CC(=O)NCCCN(C)C)CC(C(=O)N2CCOCC2)=C1C (stereo not given)	-4	.	0.2	3	5.5	-0.7%
Cc1ccccc1NC(=O)c1ccccc1NC(=O)CCC(=O)O	0	23	0.8	-15	-4.1	0.8%
CC1=Nc2ccccc2/C1=C/c1sc(=N)n(-c2nccs2)c1O	?	-15	20	-27	-2.6	?
Cc1csc(=O)n1CCC(=O)OCC(=O)c1c(N)n(CC(C)C)c(=O)n(C)c1=O	-6	6	-0.1	-10	-0.2	3.9%
Cc1nc2c(sc(=S)n2Cc2ccco2)c(=O)n1CC(=O)Nc1ccccc1F	0	-18	0.6	-4	1.4	7.6%
Cc1oc(C(C)(C)C)cc1C(=O)Nc1cccc(/C=C\C(=O)O)c1	-13	2	1.0	-16	1.3	0.6%
O=C(c1ccc(-c2ccc([N+](=O)[O-])cc2)o1)N1CCN(S(=O)(=O)c2cccs2)CC1	-7	30	-0.2	-4	-1.6	7.8%
Cc1ccc(CNC(=O)CCCc2ccccc2)cc1	12	-9	-0.7	-3	1.4	3.0%

3 compounds already listed, ordered by the number in PINK1 expr mod, falling:
compound,Six1-Eya2 blk,TRPML1 blocker,D2 potentiator,D2 agonist,PINK1 expr mod
Cc1nc2c(sc(=S)n2Cc2ccco2)c(=O)n1CC(=O)Nc1ccccc1F,0,-18,-4,1.4,7.6%
Cc1ccc(C)c(S(=O)(=O)N2CCCCC2CCNC(=O)C(=O)NC2CCCC2)c1 (stereo not given),-4,6,11,-1.3,4.2%
Cc1ccc(CNC(=O)CCCc2ccccc2)cc1,12,-9,-3,1.4,3.0%

Carrying on.
SMILES	Six1-Eya2 blk	TRPML1 blocker	TRPML1 agonist	D2 potentiator	D2 agonist	PINK1 expr mod
CCC(=O)C1CCCN(C(=O)c2ccc3nc(-c4cccc(OC)c4)oc3c2)C1 (stereo not given)	7	0	0.4	-7	0.8	1.3%
COc1ccccc1NC(=O)CSc1nnc(Cn2nnc(-c3ccccc3)n2)n1-c1ccccc1	-16	40	4.6	6	-2.5	-2.6%
c1ccc(CSc2nnnn2-c2ccc3c(c2)OCCO3)nc1	-2	7	2.6	-8	-1.6	-0.8%[38.3 µM]
COCCNC(=O)COc1cccc2c1OC(C)(C)C2	0	-15	-0.2	-15	2.2	-0.7%
COC(=O)c1ccc(OC(=O)CS(=O)c2ccccc2[N+](=O)[O-])cc1 (stereo not given)	-10	-5	1.1	-1	-5.3	2.8%

3 of the compounds above, with values under each structure:
Values in the order – Six1-Eya2 blk	TRPML1 blocker	TRPML1 agonist	D2 potentiator	D2 agonist	PINK1 expr mod
c1ccc(CSc2nnnn2-c2ccc3c(c2)OCCO3)nc1
    -2	7	2.6	-8	-1.6	-0.8%[38.3 µM]
COCCNC(=O)COc1cccc2c1OC(C)(C)C2
    0	-15	-0.2	-15	2.2	-0.7%
COC(=O)c1ccc(OC(=O)CS(=O)c2ccccc2[N+](=O)[O-])cc1 (stereo not given)
    -10	-5	1.1	-1	-5.3	2.8%
